Assay outcomes deposited in PubChem BioAssay by ICCB-Longwood Screening Facility, Harvard Medical School.
Polio RdRp inh – inhibitors of poliovirus RNA polymerase binding and polymerization; P03300; poliovirus polymerase elongation, fluorescence polarization; hits give low values; % elongation, % (compound at 16.7 µg/mL); 150,000 tested, 0.66% active; AID 588519; in the data active = % elongation below about 90%; also: some results filed as inactive read as strong as hits
Target sequence (P03300 1749-2209 limits assumed): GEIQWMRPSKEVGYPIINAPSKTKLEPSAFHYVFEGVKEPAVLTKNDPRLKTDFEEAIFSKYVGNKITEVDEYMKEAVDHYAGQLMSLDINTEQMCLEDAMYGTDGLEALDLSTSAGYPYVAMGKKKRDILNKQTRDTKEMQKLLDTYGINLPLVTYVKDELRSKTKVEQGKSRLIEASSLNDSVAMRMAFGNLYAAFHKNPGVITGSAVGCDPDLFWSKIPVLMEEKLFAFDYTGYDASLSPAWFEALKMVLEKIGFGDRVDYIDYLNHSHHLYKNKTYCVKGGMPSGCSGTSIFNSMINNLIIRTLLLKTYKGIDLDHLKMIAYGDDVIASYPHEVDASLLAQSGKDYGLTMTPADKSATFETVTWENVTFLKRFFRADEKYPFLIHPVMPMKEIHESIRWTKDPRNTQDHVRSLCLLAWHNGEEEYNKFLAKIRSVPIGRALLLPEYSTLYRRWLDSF
Polio RdRp inh intensity – also measured in Polio RdRp inh; calls as there; % elongation; measured here: total intensity read-out; formula for this scale not given here;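 total fluorescence in place of polarization; lower means less elongation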
Active calls of the source: *. Some of the compounds tested (hit frequency here may not be typical).

structure | Polio RdRp inh | Polio RdRp inh intensity
CCc1ccc2oc(C(=O)Nc3nc(-c4ccccc4)ns3)c(C)c2c1 | 101 | 99
CC(C)c1ccc(S(=O)(=O)N2CCC(n3c(C(F)(F)F)nc4cccnc43)CC2)cc1 | 103 | 105
COc1ccc(NC(=O)C(=O)NCCc2sc(-c3ccc(Cl)cc3)nc2C)cc1 | 106 | 103
O=C(Nc1ccccc1)N(Cc1cccc(Cl)c1)c1ccccn1 | 107 | 107
Cn1c(=O)[nH]c2cc(-c3noc(-c4ccc(Br)cc4)n3)ccc21 | 105 | 107
Cc1ccc(-n2ncc3c(Nc4ccccc4C)ncnc32)cc1 | 104 | 113
Cc1ccc(N(Cc2cccs2)C(=O)Nc2cccc(Cl)c2)cc1 | 106 | 109
COc1ccc(NC(=O)NC(C)c2c(-n3cccc3)sc(C)c2C)cc1OC (centres undefined) | 112 | 113
CC(C)CCNc1nc(Nc2ccccc2)c2cnn(C)c2n1 | 104 | 104
COc1cccc(-n2c(-c3ccccc3F)nc3c(cnn3-c3ccc(C)cc3)c2=O)c1 | 104 | 108
COc1ccc(-c2nn(C)c3sc(C(=O)Nc4cccc(F)c4)cc23)cc1OC | 118 | 117
COC(=O)CSc1ccc2nnc(CCNS(=O)(=O)c3ccc(C)cc3)n2n1 | 106 | 108
Cc1ccc(-c2nn3c(-c4ccccc4C)nnc3c3ccccc23)cc1 | 110 | 110
CCCCCn1c(=O)[nH]c2cc(C(=O)N3CCN(c4cccc(C(F)(F)F)c4)CC3)ccc2c1=O | 107 | 109
COc1ccccc1-c1c(C(F)(F)F)oc2c(CN3CCCCC3C)c(O)ccc2c1=O (centres undefined) | 106 | 112
COc1ccc(C2CC(=O)N3CN(C4CCCCC4)CSC3=C2C#N)c(OC)c1 (centres undefined) | 54* | 59*
Cc1cc(C(=O)NCc2ccccc2Cl)c2c(C)nn(-c3cccc(F)c3)c2n1 | 106 | 114
CC(C)c1ccc(NC(=O)CSC2=Nc3ccccc3C3=NC(CC(=O)NC4CCCCC4)C(=O)N23)cc1 (centres undefined) | 104 | 111
CCOc1cc(-c2ccc(OC(=O)c3ccc(Cl)cc3)c(OC)c2)cc(=O)c2c(C)oc(C)c12 | 109 | 113
Cc1ccc(C(C)C)c(OCCSc2nc3ccccc3n2CC(O)CO)c1 (centres undefined) | 104 | 104
CCOc1ccc(CNC(=O)C2Cc3cc(S(=O)(=O)N4CCCCCC4)ccc3N2C(C)=O)cc1 (centres undefined) | 105 | 110
Cc1cc(S(=O)(=O)N2CCN(Cc3noc(CCC(=O)N4CCCCC4)n3)CC2)ccc1F | 105 | 114
CCN(CC)S(=O)(=O)c1ccc2c(c1)N(CC(=O)Nc1c(C)cccc1C)C(=O)C1CCCN21 (centres undefined) | 108 | 114
CCC(=O)N1CCc2cc(S(=O)(=O)CCC(=O)NCc3ccc(OC)cc3)ccc21 | 109 | 109
CC(C)OC(=O)c1c(-c2ccccc2)c(-c2ccccc2)nn(C)c1=O | 108 | 96
COC(=O)c1ccccc1NC(=O)Cn1nnc2sc(-c3ccccc3)cc2c1=O | 116 | 113
COc1cccc(C(=O)N2CCc3c([nH]c4ccccc34)C2c2ccc(SC)cc2)c1 (centres undefined) | 119 | 123
Cc1cccc(C(c2sc3nc(-c4ccco4)nn3c2O)N2CCN(c3ccccc3)CC2)c1 (centres undefined) | 112 | 102
CCC(=O)N1CCc2cc(Br)cc(S(=O)(=O)CCC(=O)N3CCN(c4ccccc4OC)CC3)c21 | 101 | 106
COc1ccc(NC(=O)C(C)Sc2cc(-c3ccccc3)nc(C)n2)cc1Cl (centres undefined) | 111 | 112
CCC(=O)N1CCc2cc(Br)cc(S(=O)(=O)CCC(=O)Nc3cccc(CC)c3)c21 | 105 | 109
CC(C)(C)C(=O)Nc1ccc2nc(SCC(=O)N3CCOCC3)sc2c1 | 114 | 116
CCn1c(=O)c2cc(C(=O)NCCCN3CCC(C)CC3)sc2c2ccccc21 | 98 | 101
Clc1cccc(N2CCN(c3c4c(nc5nncn35)CCC4)CC2)c1 | 104 | 96
CCOC(=O)c1ccccc1NC(=O)Cn1c(=O)n(CCC(=O)N2CCc3ccccc3C2)c(=O)c2ccccc21 | 108 | 109
COC(=O)c1cc(NS(=O)(=O)c2ccc3c(c2)OCCO3)ccc1Cl | 106 | 111
CCCC(=O)NCCc1nc2ccccc2n1Cc1c(F)cccc1Cl | 107 | 110
COc1ccc(-c2oc3ncn4nc(-c5ccccc5OC)nc4c3c2-c2ccc(OC)cc2)cc1 | 102 | 105
CCOc1ccc(CNC(=O)c2ccc3c(c2)nc2n3CCOC2)cc1 | 113 | 111
CCOc1cccc2cc(-c3nc(-c4ccccc4C)no3)c(=O)oc12 | 120 | 128
Cc1ccc(NC(=O)C2CCCN2S(=O)(=O)c2cccc3nsnc23)c(C)c1 (centres undefined) | 103 | 104
O=S(=O)(Nc1ccc(-c2ccc(N3CCCCCC3)nn2)cc1)c1ccc(C(F)(F)F)cc1 | 101 | 106
COc1ccccc1CNC(=O)c1ccc(N2CCCC2)c(NC(=O)NCCC(C)C)c1 | 101 | 104
CC(Oc1ccccc1)C(=O)Nc1ccc(C(=O)OCc2cc(=O)n3nc(C(C)C)sc3n2)cc1 (centres undefined) | 107 | 105
COc1ccc2occ(CC(=O)Nc3ccc(S(=O)(=O)Nc4nccc(C)n4)cc3)c2c1 | 105 | 111
N#Cc1c(C(F)(F)F)cc(-c2cccs2)nc1SCC(=O)Nc1ccccc1F | 103 | 104
Cc1ccc(NC(=O)/C(C#N)=C/c2ccc(C)o2)cc1 | 107 | 115
Cc1nn(-c2ccc(N3CCCC3)nn2)c(C)c1CCC(=O)Nc1ccccc1 | 111 | 110
Cc1ccc(Cl)cc1Nc1sc(C(=O)c2ccc(F)cc2)c(N)c1S(C)(=O)=O | 107 | 108
COc1ccc(CNC(=O)c2cc(-c3ccc(C)c(C)c3)n[nH]2)cc1 | 111 | 114

A stretch from further up:
structure | Polio RdRp inh | Polio RdRp inh intensity
COc1ccc(-c2oc3ncn4nc(-c5ccccc5OC)nc4c3c2-c2ccc(OC)cc2)cc1 | 102 | 105
CCOc1ccc(CNC(=O)c2ccc3c(c2)nc2n3CCOC2)cc1 | 113 | 111
CCOc1cccc2cc(-c3nc(-c4ccccc4C)no3)c(=O)oc12 | 120 | 128
Cc1ccc(NC(=O)C2CCCN2S(=O)(=O)c2cccc3nsnc23)c(C)c1 (centres undefined) | 103 | 104
O=S(=O)(Nc1ccc(-c2ccc(N3CCCCCC3)nn2)cc1)c1ccc(C(F)(F)F)cc1 | 101 | 106
COc1ccccc1CNC(=O)c1ccc(N2CCCC2)c(NC(=O)NCCC(C)C)c1 | 101 | 104
CC(Oc1ccccc1)C(=O)Nc1ccc(C(=O)OCc2cc(=O)n3nc(C(C)C)sc3n2)cc1 (centres undefined) | 107 | 105

Other entries follow.
structure | Polio RdRp inh | Polio RdRp inh intensity
Cc1ccn2c(Nc3ccc(F)cc3)c(-c3ccccn3)nc2c1 | 115 | 115
Cc1ccc(N(C)C(=O)c2cnc(N3CCOCC3)c3ccccc23)cc1C | 111 | 105
COc1ccc(OCC(=O)N(Cc2ccc(C)o2)C2CCS(=O)(=O)C2)cc1 (centres undefined) | 120 | 117
Cc1ccc(CN2COc3cc(C)c4c(oc(=O)c5ccccc54)c3C2)cc1 | 101 | 107
COc1cccc(NC(=O)CCc2nnc3n(Cc4ccccc4Cl)c(=O)c4ccccc4n23)c1 | 105 | 110
CC(=O)c1ccc(NC(=O)CC2Nc3cccc4cccc(c34)NC2=O)cc1 (centres undefined) | 98 | 101
Cc1ccc(CNS(=O)(=O)c2ccc(F)c(C(=O)Nc3ccc(C)c(F)c3)c2)cc1 | 114 | 118
CN(C)C(=O)c1ccc(S(=O)(=O)NCc2ccccc2Cl)s1 | 109 | 108
Cn1cc(S(=O)(=O)c2ccccc2)c(=O)c2cc(F)c(N3CCCC3)cc21 | 105 | 100
Cc1ccc(NC(=O)C2CCCN(S(=O)(=O)c3cccc4cccnc34)C2)cc1Cl (centres undefined) | 104 | 102
Cc1ccc(NC(=O)Cn2cnc3onc(-c4ccc(F)cc4)c3c2=O)c(Cl)c1 | 112 | 112
CN1CCN(C2(CNC(=O)COc3ccc(C(C)(C)C)cc3)CCCCC2)CC1 | 111 | 114
CC(C)NC(=O)CCN1C(=O)c2ccccc2Sc2ncccc21 | 110 | 111
CCc1ccccc1N1C(=O)N(CC(=O)c2ccc(OC)cc2)c2ccccc2S1(=O)=O | 110 | 114
COc1cccc(NC(=O)/C(C#N)=C/c2c(C)n(Cc3ccccc3)c3ccccc23)c1 | 109 | 118
CCOC(=O)c1sc(N2C(=O)c3oc4ccc(F)cc4c(=O)c3C2c2cccc(OC)c2)nc1C (centres undefined) | 102 | 102
CCc1ccc(CNc2nc3nc(C)c(Cc4ccccc4)c(=O)n3[nH]2)cc1 | 114 | 117
Cc1nnc(N2CCN(C(=O)NCCC(C)C)CC2)c2nn(-c3ccc(Cl)cc3)c(C)c12 | 108 | 108
Cc1nc(-c2ccc(S(=O)(=O)NCc3ccccc3Cl)cc2)co1 | 110 | 107
CC(C)Oc1ccc(CNC(=O)c2ccc(NC(=O)c3nsc4ccccc34)cc2)cc1 | 112 | 116
CCOc1cc(CNC(=O)CN2CCSc3ccccc32)cc(OCC)c1OCC | 108 | 109
Cc1ccc(Cl)cc1N1CCN(C(=O)Cn2cnc3onc(-c4ccc(F)cc4)c3c2=O)CC1 | 105 | 108
CCn1ccc2cc(S(=O)(=O)N3CCCN(C(=O)Nc4ccccc4C(F)(F)F)CC3)ccc21 | 115 | 107
O=C(Nc1ccc2oc(-c3ccc4ccccc4c3)nc2c1)c1cccc(Cl)c1Cl | 105 | 110
Cc1ccc(S(=O)(=O)c2cn(C)c3cc(N4CCOCC4)c(F)cc3c2=O)c(C)c1 | 105 | 112
O=S(=O)(c1ccccc1)c1nnn2c1nc(NCc1ccc(Cl)cc1)c1sccc12 | 106 | 113
CCc1nn(CC(=O)Nc2cccc(C(C)=O)c2)c(=O)c2cc3sccc3n12 | 103 | 110
COc1ccc(-c2cc(C(=O)Oc3ccc(Br)cc3)c3ccccc3n2)cc1 | 109 | 113
CCc1ccc(NC(=O)c2cnn(-c3c(C)cccc3C)c2C2CCN(C(=O)OC(C)(C)C)CC2)cc1 | 111 | 108
CCN(C(=O)c1cc2c(=O)oc3ccccc3c2s1)c1cccc(C(F)(F)F)c1 | 104 | 99
CCOc1ccccc1CNCc1c(C(=O)O)n(Cc2ccccc2)c2cc(OC)ccc12 | 111 | 107
Cc1cc(=O)[nH]c2nnc(SCc3ccccc3F)n12 | 99 | 104
CCOC(=O)COc1ccc([N+](=O)[O-])cc1-c1ccnc2cc(-c3ccc(C)cc3)nn12 | 100 | 104
Cc1cc(C)c2oc(C(=O)NCCc3ccc(S(N)(=O)=O)cc3)cc(=O)c2c1 | 103 | 109
COc1ccccc1CNC(=O)CN1C(=O)COc2ccc(S(=O)(=O)N3CCCCC3)cc21 | 118 | 112
Cc1cccc(NC(=O)C2CCN(c3nnc(-n4c(C)ccc4C)s3)CC2)c1C | 108 | 106
COc1ccc(NC(=O)c2ccc3c(c2)c(C)c(C)n3Cc2ccc(F)cc2)cc1 | 107 | 115
CC(=O)Nc1ccc(NC(=O)c2ccc3c(c2)NC(=O)c2ccccc2S3)cc1 | 109 | 107
COc1cc(OC)c(C2C=C(c3ccc(C)cc3)Nc3c(C(=O)Nc4ccccc4)cnn32)cc1OC (centres undefined) | 107 | 112
O=C1CCCc2[nH]c(=O)c(-c3nc(-c4cccc([N+](=O)[O-])c4)cs3)cc21 | 108 | 108
Cc1ccc(S(=O)(=O)N2CCN(Cc3nc4ccc(C)cc4o3)CC2)c(C)c1 | 105 | 109
O=C(c1ccc2c(c1)N(Cc1ccccc1F)C(=O)c1ccccc1S2=O)N1CCN(c2ccccc2)CC1 (centres undefined) | 108 | 110
COCCNC(=O)c1cc(-c2cccc(Cl)c2)on1 | 106 | 102
COc1cccc(C2C(C(N)=O)=C(C)Nc3ncnn32)c1 (centres undefined) | 106 | 109
O=C(CCNS(=O)(=O)c1ccc2c(c1)CCN2C(=O)C1CC1)Nc1ccc(Cl)cc1 | 107 | 105
CCOc1ccc(-c2cn3c(n2)sc2cc(C(=O)NCCC4=CCCCC4)ccc23)cc1 | 101 | 96
CCc1ccc(CN(C(=O)c2nc(SC)ncc2Cl)C2CCS(=O)(=O)C2)cc1 (centres undefined) | 117 | 112
O=C(NCc1cccc(Br)c1)c1ccc(-n2cnc3cccnc32)cc1 | 102 | 107
COc1ccccc1NC(=O)CCNS(=O)(=O)c1ccc2c(c1)CCCC(=O)N2 | 102 | 102
Cc1ccc(NC(=O)Cn2c(=O)n(CCC(C)C)c(=O)c3cccnc32)cc1C | 105 | 106

Whole records, quoted from the list.
Record of `CCOC(=O)COc1ccc([N+](=O)[O-])cc1-c1ccnc2cc(-c3ccc(C)cc3)nn12` : Polio RdRp inh = 100; Polio RdRp inh intensity = 104
Record of `O=S(=O)(c1ccccc1)c1nnn2c1nc(NCc1ccc(Cl)cc1)c1sccc12` : Polio RdRp inh = 106; Polio RdRp inh intensity = 113

Additional records.
structure | Polio RdRp inh | Polio RdRp inh intensity
CSc1ccc(CCNC(=O)C(C)n2nc(C)c3c(C)n(-c4ccccc4)nc3c2=O)cc1 (centres undefined) | 113 | 114
Cc1ccc(NC(=O)C2CCCN(S(=O)(=O)c3cccc4nsnc34)C2)cc1C (centres undefined) | 119 | 125
COc1cccc(/C=C/c2nc(C#N)c(NCCN(C)C)o2)c1 | 111 | 104
O=C(Nc1ccc(Oc2ccccc2)cc1)C1CCN(S(=O)(=O)c2ccc(Cl)cc2)CC1 | 106 | 114
Cc1cc2c(cc3c(SCc4cccc(Cl)c4)nnc(C)n32)o1 | 107 | 103
CCc1ccc2[nH]cc(S(=O)(=O)c3ccc(C(C)C)cc3)c(=O)c2c1 | 103 | 102
CNC(=O)c1ccc2nc(Cc3ccccc3)oc2c1 | 103 | 109
Cc1cc(=O)n(Cc2c(F)cccc2Cl)c2c1c(C)nn2-c1cccc(F)c1 | 103 | 106
CCOc1ccc(CCNC(=O)C(C)n2nc(C)n3c(cc4occc43)c2=O)cc1OCC (centres undefined) | 104 | 103
Cc1ccc(NC(=O)N2CCN(c3nnc(C)c4c(C)n(-c5ccccc5)nc34)CC2)cc1Cl | 111 | 111
CC1CCCCN1CCNC(=O)c1ccc(Cn2c(SCc3ccccc3)nc3cccnc32)cc1 (centres undefined) | 111 | 115
